Calb FLC: C. albicans growth modulation with fluconazole; C. albicans CaCi-2 (fluconazole-resistant clinical isolate) + fluconazole, Alamar Blue growth, 48 h; growth inhibition, % (concentration not given with the values); actives 0.57% (n = 300,000);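 active = most replicates above 75%; inconclusive = exactly half above 75%; inactive = most below 75%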;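 also: all wells also contain fluconazole at 8 µg/ml as a sub-toxic cotreatment; 0% = median of DMSO wells and 100% = median of geldanamycin control wells; wells of about 8 µL received 7.5 nL stock; the first replicate is given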
A1 inh: inhibitors of the anti-apoptotic protein A1, read as caspase activation; MEF A1-2A-BIM cells, Caspase-Glo 3/7 luminescence, 3 h; percent of clofoctol response, vehicle zero; caspase activation, % (no concentration beside the values); actives 0.066% (n = 330,000); AID 2462;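 active = over half of replicate activation scores above 10%, or exactly half above 10 with the replicate mean above 10; inconclusive = replicate mean below 10 yet half the replicates above 10; inactive = over half of replicates below 10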;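 also: wells of about 30 µL received 50 nL stock; many hits fall short of the cut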
Ecoli rRNA inh: inhibitors of bacterial rRNA selective over humanized ribosomes; E. coli WT GFP vs humanized-ribosome RFP mutants, fluorescence, 24 h; stronger effect = lower value; DMSO median 0, no signal -100; GFP signal change (wild-type ribosome), % (concentration not given with the values); actives 1.6% (n = 350,000); AID 720706;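 active = significant combined selectivity score with lowered wild-type GFP, culture density cut under 30%, mutant RFP and density less affected; inactive = any of these conditions unmet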; also: one replicate is shown; some compounds called inactive have numbers as strong as hits
T cruzi inh: blocks replication of Trypanosoma cruzi | T. cruzi beta-gal in NIH3T3, luminescence, 90 h | inhibition, % (test concentration not listed) | actives 1.4% (n = 300,000) | AID 1885;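 active = mean inhibition across valid replicates above about 55%, limit read from the data; inconclusive = mean below that limit but half or more replicates reach it; inactive = mean below it, under half of replicates reach it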;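 also: signal also drops with host cell toxicity which is not excluded here; 0% = plate median of DMSO wells and 100% = zero luminescence signal; higher percent means less beta-gal luminescence so fewer parasites; stock transfer was 50 nL into about 50 µL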
Vif A3G: inhibitors of Vif binding to APOBEC3G peptide, primary screen, biochemical, TR-FRET, GST-Vif 1-94, biotin-A3G peptide, dose response retest (AID 1117319) | TR-FRET GST-Vif / biotin-A3G peptide binding; higher % means a stronger effect; test concentration not given here; strong numbers were not always called active | one-dose inhibition, %; IC50 in µM for titrated hits | actives 0.57% (n = 260,000);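 active = above the screen mean plus three standard deviations and confirmed in dose response; inconclusive = results disagree or hit not tested in dose response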;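 also: Vif residues 1-94 fused to GST binding biotinylated APOBEC3G peptide 110-148; 0% = full assay without inhibitor and 100% = GST in place of GST-Vif; retest series ran down from 100 µM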
RanGTP-Impb inh: inhibitors of RanGTP-importin-beta interaction, primary screen, biochemical, FRET, CFP-Ran, YFP-importin-beta, homogeneous. cell-free CFP-Ran/YFP-importin-beta FRET ratio. inhibition, % (concentration not given with the values). actives 1.1% (n = 300,000). AID 2216;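 active = most replicates above 15%; inconclusive = exactly half above 15%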;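 also: 0% = DMSO wells and 100% = Ran loaded with GDP instead of GTP; wells of about 40 µL received 100 nL stock; the first replicate is given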
Beta cell apopt: blocks beta cell apoptosis; protection from apoptosis, % (no concentration beside the values); INS-1E cytokine-induced death, ATP luminescence, 48 h; percent of positive-control rescue, neutral wells zero; AID 435005; actives 0.8% (n = 300,000);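 active = all replicates at 75% or more, or half of them and the mean; inconclusive = half reach 75% but not the mean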;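 also: 0% = cytokine-treated negative control wells and 100% = positive control rescue; higher means more ATP so stronger rescue from cytokine killing; wells of about 40 µL received 100 nL stock; the first replicate is given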
MLL AF4-AF9 inh: inhibitors of human MLL-AF4/AF9 interaction. P42568. inhibition, % at 10 µM. actives 0.47% (n = 350,000). AlphaScreen, biotin-AF4 peptide binding to FLAG-AF9. AID 651704;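 active = every replicate reaching a set inhibition limit, whatever the replicate mean, cut at about 25% in these data; inconclusive = mean inhibition reaches that limit but some replicates miss it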;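 also: 0% = plate neutral control median and 100% = total signal loss; the record names both 10 and 1 µM as test concentration; the first replicate is given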
Target sequence (P42568 whole entry, looked up): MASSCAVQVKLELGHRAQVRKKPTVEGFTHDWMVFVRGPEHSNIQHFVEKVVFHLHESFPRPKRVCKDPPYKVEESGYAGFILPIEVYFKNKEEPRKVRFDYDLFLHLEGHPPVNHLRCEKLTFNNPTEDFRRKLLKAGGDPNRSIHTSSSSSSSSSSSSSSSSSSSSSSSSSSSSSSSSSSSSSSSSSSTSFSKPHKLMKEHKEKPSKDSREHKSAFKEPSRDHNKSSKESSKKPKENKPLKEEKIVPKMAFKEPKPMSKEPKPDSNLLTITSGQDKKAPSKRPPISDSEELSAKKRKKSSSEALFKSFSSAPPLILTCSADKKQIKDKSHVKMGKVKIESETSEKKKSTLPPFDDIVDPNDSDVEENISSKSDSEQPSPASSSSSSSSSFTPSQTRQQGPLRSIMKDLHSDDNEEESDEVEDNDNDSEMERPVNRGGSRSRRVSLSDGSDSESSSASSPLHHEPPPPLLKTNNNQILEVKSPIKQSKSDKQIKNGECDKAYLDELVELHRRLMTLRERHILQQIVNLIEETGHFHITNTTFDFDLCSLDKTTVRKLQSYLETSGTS
Ecoli rRNA inh OD600: further read-out of Ecoli rRNA inh, marked with its call; OD600 change, %; measured here: OD600 growth;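 optical density of the mix in the first replicate; 0 = DMSO median and -100 = no signal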
Ecoli rRNA inh RFP: second read-out of Ecoli rRNA inh, no call of its own (marks repeat the call); RFP signal change, %; measured here: RFP humanized mutant strains;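 first replicate; 0 = DMSO median and -100 = no signal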
Numbers without * were called inactive; ? = inconclusive; . = not tested or not shown. Not all compounds are listed. The share of hits here may be higher or lower than overall.

Every second line gives: Calb FLC, A1 inh, Ecoli rRNA inh, Ecoli rRNA inh OD600, Ecoli rRNA inh RFP, T cruzi inh, Vif A3G, RanGTP-Impb inh, Beta cell apopt, MLL AF4-AF9 inh
O=C(CNC(=O)c1cc(=O)[nH]c2ccccc12)Nc1ccc(F)c(F)c1
  1, 0.4, 12, 22, 0.7, -4, 13%, -2.1, 2, -1.2
N#CC1(Cc2ccccc2)c2ccccc2C=CN1C(=O)c1ccccc1 (stereo unspecified)
  7, 0.4, ., ., ., 17, -6%, -3.4, -2, .
CCOCC(=O)Nc1nc2ccc(OCC)cc2s1
  -4, -7.0, ., ., ., 5, 1%, ?, 3, .
Cc1cc(=O)oc2cc(OCC(=O)N3CCOCC3)ccc12
  20, ., ., ., ., 6, -3%, 4.9, ., .
CSc1ccccc1NC(=O)Nc1cccc(Cl)c1Cl
  -11, 0.1, ., ., ., 22, 3%, 0.4, 2, .
CCOC(=O)N1CCN(c2cc(=O)n(Cc3ccc(F)cc3)c(=O)[nH]2)CC1
  17, -0.2, ., ., ., -7, -2%, 26*, 0, .
Cn1c(NC(=O)C(C)(C)Oc2ccc(Cl)cc2)cc(=O)n(C)c1=O
  8, 0.8, -1, -4, 2.8, -13, 8%, -6.7, 9, -10.0
O=C(NCCOc1ccc(F)cc1)C1CCC(=O)N(CCN2CCOCC2)C1 (stereo unspecified)
  -12, 0.4, 11, 3, 0.5, 4, ., -0.5, -2, -4.5
COc1cccc(NC(=S)N2CCN(C(c3ccccc3)c3ccccc3)CC2)c1
  ?, 0.5, -1, 7, -2.9, 9, ., -0.8, -20, 3.4
CCN(CC)S(=O)(=O)c1ccc(NC(=O)c2cc(=O)[nH]c3ccccc23)cc1
  -4, 0.4, -1, 8, 1.4, -8, ?, 3.3, -3, 8.1
CCN1CCN(c2ccc(NC(=O)c3cccc4ncccc34)cc2)CC1
  2, 0.0, 10, 9, -1.6, -5, 6%, 1.8, -6, .
c1ccc(CCn2c(SCc3ccccc3)nnc2-c2ccncc2)cc1
  3, -0.4, ., ., ., 32, 10%, -2.8, 3, .
COc1ccc(C(CNC(=O)c2c(C)nn(Cc3ccccc3)c2Cl)N2CCOCC2)cc1 (stereo unspecified)
  ., -0.4, 2, 0, -0.9, ., -4%, ., 1, -1.1
CCOc1ccc(OCC(=O)OCc2csc(CC(=O)Nc3ccccc3C)n2)cc1
  -3, -0.1, 14, 16, -2.0, -5, -12%, 1.3, ., -5.3
COc1ccc(CN2CC(C(=O)N3CCOCC3)CC2=O)cc1 (stereo unspecified)
  5, 0.2, ., ., ., 2, -3%, -0.2, -3, .

In the list so far, these have an aryl thioether with sulfur outside any ring.
Every second line gives: Calb FLC, A1 inh, Ecoli rRNA inh, Ecoli rRNA inh OD600, Ecoli rRNA inh RFP, T cruzi inh, Vif A3G, RanGTP-Impb inh, Beta cell apopt, MLL AF4-AF9 inh
CSc1ccccc1NC(=O)Nc1cccc(Cl)c1Cl
  -11, 0.1, ., ., ., 22, 3%, 0.4, 2, .
c1ccc(CCn2c(SCc3ccccc3)nnc2-c2ccncc2)cc1
  3, -0.4, ., ., ., 32, 10%, -2.8, 3, .

(continued)
Every second line gives: Calb FLC, A1 inh, Ecoli rRNA inh, Ecoli rRNA inh OD600, Ecoli rRNA inh RFP, T cruzi inh, Vif A3G, RanGTP-Impb inh, Beta cell apopt, MLL AF4-AF9 inh
Cc1c(C)n(C(=O)CN2CCN(c3ccccn3)CC2)c2ccccc12
  6, 0.4, ., ., ., 1, 3%, 1.0, 0, .
COc1ccccc1-c1nnn(C/C(N)=N/O)n1
  -5, 0.5, 13, -3, -0.4, -19, 14%, -2.1, 6, 2.6
CCCCNS(=O)(=O)c1cccc(S(=O)(=O)N2CCCC2)c1
  0, 0.7, ., ., ., ., 16%, -0.5, 0, .
O=C(NC1CCCCC1)C(c1ccccc1)N(Cc1ccco1)C(=O)Cn1cnc2ccccc21 (stereo unspecified)
  49, ., ., ., ., 16, 21%, 1.8, ., .
O=C(NN=C1CCN(Cc2ccccc2)CC1)C(O)c1ccccc1 (stereo unspecified)
  -2, -0.1, 1, 8, 3.9, -9, -1%, 1.5, 0, 0.2
O=C(COC(=O)c1ccc([N+](=O)[O-])cc1Cl)Nc1cccnc1Cl
  4, 0.0, 4, -1, 0.3, -4, -1%, 2.1, -2, -19
COc1ccc(S(=O)(=O)N2CCCCC2)cc1NS(=O)(=O)c1ccccc1F
  23, -0.4, -3, -16, 4.1, 7, ., 3.5, -4, -0.8
CC(=O)N=c1sc2nc3ccccc3nc2n1N(C(C)=O)C(C)=O
  33, -0.3, ., ., ., -13, -236%, 4.2, -1, .
O=c1[nH]c(N2CCOCC2)cc2ccccc12
  8, -0.6, -5, -11, 4.0, -3, ., 1.2, 1, -0.9
COC(=O)c1ccc(Oc2nc(Nc3ccc(F)cc3)nc(N3CCCC3)n2)cc1
  -12, -0.2, ., ., ., 1, -3%, 3.6, 15, .
CCN(CC)CCCNC(=O)c1ccc2c(Cl)c3c(nc2c1)CCCC3
  ?, 0.4, -12, -11, 1.7, 21, 1%, -1.3, 3, 2.9
O=C1NC2(CCCCC2)N=C1c1ccccc1
  14, 0.3, ., ., ., -10, 0%, -2.7, -1, .
CCCC(=O)N1c2ccccc2[C@@H](N(C(C)=O)c2ccccc2)C[C@H]1C
  12, 0.3, ., ., ., -4, 28%, -0.1, ., .
CC1=[N+](C)c2ccc3ccccc3c2C1(C)C
  23, -0.7, -16, -8, 58, 69*, ?, ?, 99*, 23
Cc1onc(-c2ccccc2)c1C(=O)Nc1ccc(S(=O)(=O)NC2=NCCCCC2)cc1
  9, 0.8, ., ., ., -4, 27%, 2.3, -9, .

Later entries
Every second line gives: Calb FLC, A1 inh, Ecoli rRNA inh, Ecoli rRNA inh OD600, Ecoli rRNA inh RFP, T cruzi inh, Vif A3G, RanGTP-Impb inh, Beta cell apopt, MLL AF4-AF9 inh
Cc1ccc(S(=O)(=O)CC(=O)Nc2nnc(C)s2)cc1
  6, 0.0, 4, -2, -2.3, 10, ., -1.2, ., -1.2
C#CCOC(=O)CCCNc1ccc([N+](=O)[O-])cc1[N+](=O)[O-]
  -37, 1.1, ., ., ., -12, 15%, 6.6, -4, .
CCCCNC(=S)NNC(=O)c1csc(C)c1
  -1, -0.2, ., ., ., -20, 8%, 1.1, -8, .
CCCNC(=O)OC[C@H]1O[C@H](CCO/N=C/C[C@@H]2C=C[C@H](OC(C)=O)[C@@H](COC(C)=O)O2)C=C[C@@H]1Oc1ccc(OC)cc1
  3, 0.5, ., ., ., 8, ., 3.0, -2, .
Cc1ccc(-c2nc(SCC(=O)N(C)c3c(N)n(Cc4ccccc4)c(=O)[nH]c3=O)n[nH]2)cc1
  16, -1.0, 1, 4, 0.3, -3, 7%, 0.2, 1, -0.5
CCC(CC)c1nnc(NC(=O)c2cccc(S(=O)(=O)N3CCOCC3)c2)s1
  ., -2.0, -1, 0, 2.2, ., -5%, ., 2, 0.0
Cc1ccc(S(=O)(=O)N2CCOCC2)cc1C(=O)NC(C)CCc1ccccc1 (stereo unspecified)
  ., 0.7, -8, -1, 4.5, ., ., ., 3, 1.9
COC(=O)C(Cc1ccccc1)NC(=O)c1cccc(S(=O)(=O)N(C)C)c1 (stereo unspecified)
  -15, -0.1, 2, 4, 0.9, -6, ?, 2.4, -1, -1.1
CCO[C@@H]1OC(C(N)=O)=C[C@H](C2CC2)[C@H]1CCCO
  -9, -0.1, -2, 5, 19, -12, ., -0.3, -9, 1.5
COc1ccccc1N1CCN(C(=O)c2ccc3[nH]c4c(c3c2)CCCC4)CC1
  0, -0.8, ., ., ., 22, ., 13, -28, .
O=C(Nc1sc(-c2ccccc2)cc1C(=O)O)c1ccccc1
  -1, -3.4, -59, -82, -27, 3, -8%, -1.4, 3, 2.0
Cc1nn2cc(-c3ccc(N)cc3)nc2s1
  2, 0.1, ., ., ., 6, 4%, -0.7, 4, .
CCC(=O)NC(Nc1cc(C)cc(C)n1)(C(F)(F)F)C(F)(F)F
  13, 0.2, ., ., ., -14, ., 1.5, -17, .
CC(=O)Oc1ccc(-c2ccc(C(=O)Nc3cccc(S(=O)(=O)N4CCOCC4)c3)cc2)cc1
  -5, 0.2, 3, -4, -6.3, 41, -8%, 4.2, 5, -5.0
CC(C)C(c1nnnn1C1CCCC1)N1CCN(c2ccccc2F)CC1 (stereo unspecified)
  6, 0.3, ., ., ., 4, 0%, -4.3, 0, .

Remaining list, next part
Every second line gives: Calb FLC, A1 inh, Ecoli rRNA inh, Ecoli rRNA inh OD600, Ecoli rRNA inh RFP, T cruzi inh, Vif A3G, RanGTP-Impb inh, Beta cell apopt, MLL AF4-AF9 inh
Cc1nc2cc(C(F)(F)F)ccc2n1CCNc1nc(-c2ccc(F)cc2)cs1
  6, -0.5, 6, 17, 4.4, -10, ., -3.6, -10, -11
CCOC(=O)CSc1nnc(-c2ccc([N+](=O)[O-])cc2)o1
  -16, 0.0, 0, -1, -2.1, 1, ., 1.1, -1, -0.1
NC(=O)C1CCN(c2nc(-c3ccc(F)cc3)cs2)CC1
  ., 1.8, -13, -19, 4.5, ., ., ., -19, -1.7
O=C(NC(Cc1ccccc1)C(=O)O)/C(=C/c1ccco1)NC(=O)c1cccc([N+](=O)[O-])c1 (stereo unspecified)
  10, -0.2, 12, 18, 4.0, -2, -15%, 2.0, -2, -3.6
c1ccc(COC2CCCN(Cc3nc(-c4cccs4)no3)C2)nc1 (stereo unspecified)
  2, 0.7, 12, 6, -1.4, 0, 10%, -2.3, -10, -8.5
CCc1nnc2c(NCCc3ccc(OC)c(OC)c3)nc3ccccc3n12
  -5, ., 0, 10, -2.9, 8, -5%, -1.6, ., -3.3
CC(C)OC(=O)Cn1cnc2ccc(Br)cc2c1=O
  -4, 0.9, ., ., ., -3, 5%, -1.8, -2, .
COC(=O)c1cccc(NC(=O)NC(=O)c2ccccc2Cl)c1
  -26, -0.1, 8, 8, -2.8, -2, ?, -0.6, 3, 0.8
Cc1ccc(S(=O)(=O)N2CCC(C(=O)NCCCOC(C)C)CC2)cc1
  19, -0.6, 9, 11, 2.0, -13, -3%, 1.5, -7, -3.9

Screens deposited in PubChem by several laboratories.
